Screens: PubChem, several laboratories
CSC inhib: cancer stem cell viability inhibitors, primary screen, luminescence. cancer stem cell-like cells viability. inhibition, % at 7.5 µM. 1.1% of 300,000 active;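 active means mean at 75% or more and at least half the replicates too; inconclusive means mean and replicates disagree; tested in HMLE shEcad cells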;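 further: 0% = median of negative and 100% = median of positive control wells; the first replicate is given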
Rce1 inhib: yeast Rce1p protease inhibitors, primary screen, biochemical, fluorescence, cell-free homogeneous; yeast membranes, quenched prenylated peptide cleavage fluorescence; calls only; AID 2563, 2010; CAAX prenyl protease 2 (Saccharomyces cerevisiae (strain ATCC 204508 / S288c)), Q03530; 0.27% of 290,000 active;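 active means fall in fluorescence gain of 50% or more versus controls, with final raw signal at or below 3038400; inconclusive means same 50% fall but final raw signal above 3038400; inactive means fall in fluorescence gain under 50%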;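 further: plate controls were neutral control wells for no effect and wells lacking membranes for full effect; tested at 10 µM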
MT1-MMP act inh: blockers of MT1-MMP proenzyme processing, primary screen, HT1080 RFP-PRO-GFP cells, GFP/RFP fluorescence | 0.061% of 360,000 active | GFP/RFP ratio change, % at 20 µM | GFP/RFP ratio fluorescence, overnight; percent of plate control window, DMSO zero;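 active means GFP/RFP ratio change of at least 30% with cell ATP level not reduced by more than half and red fluorescence within 50% of control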; further: strong numbers were not always called active
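Test system: HT1080 cells expressing an RFP-PRO-GFP fluorescent reporter construct / Compound dosing: single-point 20 µM compound, 1% DMSO / Schedule: cells overnight before dosing, compound overnight, 37 °C, 5% CO2 / Evaluation: GFP/RFP fluorescence ratio / Control set: DMSO and RFP-L50D-GFP cell wells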
PABP FP inh: PABP poly(A) RNA binding inhibitors, primary screen, biochemical, fluorescence polarization, uHTS; Polyadenylate-binding protein 1 (Homo sapiens), P11940; 1% of 290,000 active; inhibition, % at 35 µM;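 active means 50% or more with normal probe brightness, or confirmed in later tests; inconclusive means above 50% with abnormal brightness, or retests that disagree; inactive means below 50% or failed in later tests; about a fifth of its hits are not listed in these tables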;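 further: calls also rest on retests at 20 µM and on dose response follow-up; controls were probe without protein and protein plus probe with vehicle; some compounds called inactive have numbers as strong as hits; many hits fall short of the cut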
Target sequence (P11940 whole entry, looked up): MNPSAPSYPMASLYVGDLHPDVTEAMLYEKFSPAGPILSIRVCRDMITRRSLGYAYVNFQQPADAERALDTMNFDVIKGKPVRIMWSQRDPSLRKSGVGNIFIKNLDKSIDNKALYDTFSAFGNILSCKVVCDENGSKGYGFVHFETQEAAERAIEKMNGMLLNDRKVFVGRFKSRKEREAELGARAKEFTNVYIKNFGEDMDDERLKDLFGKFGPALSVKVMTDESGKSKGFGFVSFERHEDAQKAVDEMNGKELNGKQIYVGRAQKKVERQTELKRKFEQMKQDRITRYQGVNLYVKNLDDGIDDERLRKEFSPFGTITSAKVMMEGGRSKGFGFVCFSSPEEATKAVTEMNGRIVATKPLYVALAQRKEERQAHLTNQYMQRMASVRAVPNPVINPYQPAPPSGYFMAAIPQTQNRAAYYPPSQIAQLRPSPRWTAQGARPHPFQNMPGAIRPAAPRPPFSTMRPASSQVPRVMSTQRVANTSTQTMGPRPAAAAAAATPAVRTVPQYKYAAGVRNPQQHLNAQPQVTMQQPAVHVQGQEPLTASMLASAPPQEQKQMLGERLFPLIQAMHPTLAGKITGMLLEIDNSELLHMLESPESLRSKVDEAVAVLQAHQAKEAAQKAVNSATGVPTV
eIF4H inh: human eIF4H binding inhibitors, primary screen, translation initiation inhibitor project, biochemical, uHTS, fluorescence polarization; Eukaryotic translation initiation factor 4H (Homo sapiens), Q15056; eIF4H fluorescence polarization binding assay; inhibition, % at 35 µM; 0.94% of 290,000 active; AID 2012, 2009;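 active means 50% or more with normal probe brightness, or confirmed in later tests; inconclusive means above 50% with abnormal brightness, or retests that disagree; inactive means below 50% or failed in later tests; about a fifth of its hits are not listed in these tables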;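 further: calls also rest on retests at 20 µM and on dose response follow-up; 0% = protein and probe with vehicle and 100% = probe without protein; strong numbers were not always called active; many hits fall short of the cut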
UUG fidelity: modulators of yeast start codon fidelity, primary screen, whole organism, S. cerevisiae, single point, plate reader; activity score, % at 18.7 µM; S. cerevisiae UUG-firefly luciferase reporter, luminescence/redox ratio; 0.13% of 350,000 active;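 active means replicate mean at a twofold rise or more, about +100% in these data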;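 further: firefly luciferase made from a UUG start codon reports start codon fidelity; reporter light over untreated wells divided by growth signal over untreated wells; some hits fall short of that in this replicate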
Env fusion inh: inhibitors of HIV-1 Env-driven cell-cell fusion, primary screen, HeLa-JRFL effector, CEM21 target cells, luciferase; inhibition, % at 12.3 µM; 1.1% of 360,000 active;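 active means mean replicate inhibition score of at least 50 and every replicate individually at or above 50; inconclusive means only one of the two criteria met; inactive means mean below 50 and not all replicates reaching 50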;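 further: 0% = plate neutral controls and 100% = maraviroc near 300 nM; one replicate is shown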
MT1-MMP act inh RFP: recorded beside MT1-MMP act inh, whose call it bears; RFP signal change, %; measured here: RFP expression control read;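 0 = vehicle wells; hits needed this value within 50% of zero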
An asterisk follows results filed as active. This is a subset; count on the stated rates, not on these rows.

Results for Cc1cc(NC(=O)CSc2nnc3c(C)cc4ccccc4n23)no1 ?
CSC inhib: -6; Rce1 inhib: inactive; MT1-MMP act inh: 4; PABP FP inh: -4; eIF4H inh: 2; MT1-MMP act inh RFP: 4

How did CCN1CCCC1CNC(=O)c1ccc2c(c1)N(Cc1cccc(Cl)c1)C(=O)c1ccccc1S2(=O)=O (stereo not given) do in these assays?
CSC inhib: 6; Rce1 inhib: inactive; MT1-MMP act inh: -5; PABP FP inh: 16; eIF4H inh: -10; UUG fidelity: 4; Env fusion inh: -29; MT1-MMP act inh RFP: -3

What do the screens show for `Cc1ccc(C)n1CCN1CCN(CC(=O)Nc2cc(C(F)(F)F)ccc2Cl)CC1`?
Rce1 inhib: inactive; PABP FP inh: -10; eIF4H inh: -16

How did O=C(O)c1ccc2c(=O)n3c(nc2c1)/C(=C/c1ccc(F)cc1)CC3 do in these assays?
CSC inhib: -4; Rce1 inhib: inactive; MT1-MMP act inh: 2; PABP FP inh: 18; eIF4H inh: -2; UUG fidelity: -29; Env fusion inh: -12; MT1-MMP act inh RFP: -1

Results for CCOC(=O)CSc1nc2cc(C(=O)NCc3ccco3)ccc2c(=O)n1C1CCCCC1 ?
CSC inhib: -11; Rce1 inhib: inactive; MT1-MMP act inh: -7; PABP FP inh: 5; eIF4H inh: -2; MT1-MMP act inh RFP: -1

Results for CS(=O)(=O)c1ccc(Cl)c(NC(=O)c2cccc(-n3cnnn3)c2)c1 ?
CSC inhib: -2; Rce1 inhib: inactive; MT1-MMP act inh: 6; UUG fidelity: -18; MT1-MMP act inh RFP: 7

Results for CCN(CC)S(=O)(=O)c1ccc(C(=O)Nc2ccc(OCC(=O)N3CCOCC3)cc2)cc1 ?
CSC inhib: -5; Rce1 inhib: inactive; MT1-MMP act inh: 5; PABP FP inh: 3; eIF4H inh: 7; UUG fidelity: 12; MT1-MMP act inh RFP: 0

What do the screens show for `CC(C)(CNC(=O)c1cc(-c2ccc(Cl)s2)nc2ccccc12)N1CCOCC1`?
CSC inhib: -8; Rce1 inhib: inactive; MT1-MMP act inh: -6; UUG fidelity: -10; Env fusion inh: 11; MT1-MMP act inh RFP: -3

How did COc1ccc(N(C)C(=O)c2cn(CC(C)C)c(=O)c3cc(OC)c(OC)cc23)cc1 do in these assays?
CSC inhib: -13; Rce1 inhib: inactive; MT1-MMP act inh: 2; PABP FP inh: 6; eIF4H inh: -7; UUG fidelity: 0; Env fusion inh: inconclusive; MT1-MMP act inh RFP: 2

How did COc1ccc(Nc2ncnc3ccc([N+](=O)[O-])cc23)c(OC)c1 do in these assays?
CSC inhib: -2; Rce1 inhib: inactive; MT1-MMP act inh: -4; PABP FP inh: 8; eIF4H inh: 7; Env fusion inh: 17; MT1-MMP act inh RFP: -5

Next section; it opens with the 2 that closed the last part.
How did COc1ccc(N(C)C(=O)c2cn(CC(C)C)c(=O)c3cc(OC)c(OC)cc23)cc1 do in these assays?
CSC inhib: -13; Rce1 inhib: inactive; MT1-MMP act inh: 2; PABP FP inh: 6; eIF4H inh: -7; UUG fidelity: 0; Env fusion inh: inconclusive; MT1-MMP act inh RFP: 2

How did COc1ccc(Nc2ncnc3ccc([N+](=O)[O-])cc23)c(OC)c1 do in these assays?
CSC inhib: -2; Rce1 inhib: inactive; MT1-MMP act inh: -4; PABP FP inh: 8; eIF4H inh: 7; Env fusion inh: 17; MT1-MMP act inh RFP: -5

How did COc1ccc(S(=O)(=O)NC(C)C(=O)NCc2cccnc2)cc1Cl (stereo not given) do in these assays?
CSC inhib: -8; Rce1 inhib: inactive; MT1-MMP act inh: 1; PABP FP inh: -2; eIF4H inh: -2; UUG fidelity: -8; Env fusion inh: -4; MT1-MMP act inh RFP: -1

How did COc1ccc(C(=O)COC(=O)c2cc(C)no2)c(OC)c1 do in these assays?
CSC inhib: 10; MT1-MMP act inh: -2; UUG fidelity: -17; Env fusion inh: 1; MT1-MMP act inh RFP: 3

What do the screens show for `COc1ccc(/C=N/NC(=O)c2ccoc2C)cc1COc1ccc(Cl)cc1`?
CSC inhib: -12; Rce1 inhib: inactive; MT1-MMP act inh: -5; PABP FP inh: 0; eIF4H inh: 7; UUG fidelity: -7; Env fusion inh: 2; MT1-MMP act inh RFP: -19

What do the screens show for `Cc1cc(C)cc(OCC(=O)NNC(=O)c2cc(C)[nH]n2)c1`?
CSC inhib: 16; Rce1 inhib: inactive; MT1-MMP act inh: 3; PABP FP inh: -11; eIF4H inh: -9; UUG fidelity: -1; MT1-MMP act inh RFP: 2

Results for COC(=O)c1ccc(OCC(O)CN2C(=O)c3ccccc3S2(=O)=O)cc1 (stereo not given) ?
CSC inhib: -10; Rce1 inhib: inactive; MT1-MMP act inh: -1; PABP FP inh: -4; eIF4H inh: -16; Env fusion inh: -142; MT1-MMP act inh RFP: 1

How did O=C(COC(=O)/C=C/c1cccs1)NC(c1ccccc1)c1ccccc1 do in these assays?
CSC inhib: 0; Rce1 inhib: inactive; MT1-MMP act inh: 0; PABP FP inh: -6; eIF4H inh: -2; UUG fidelity: -12; MT1-MMP act inh RFP: 0

Results for Cc1nc2ccc(C(=O)Nc3cccc(NS(C)(=O)=O)c3)cn2c1N(C)C(=O)CCc1ccccc1 ?
MT1-MMP act inh: -1; UUG fidelity: -21; Env fusion inh: 8; MT1-MMP act inh RFP: 7

Results for COc1cc(NC(=O)c2ccno2)cc(C(=O)Nc2cccc(C(F)(F)F)c2)c1 ?
CSC inhib: 11; Rce1 inhib: inactive; MT1-MMP act inh: 8; PABP FP inh: -2; eIF4H inh: -8; UUG fidelity: 1; Env fusion inh: 10; MT1-MMP act inh RFP: -5

Results for Nn1c(Nc2ccccc2)nc2ccccc2c1=O ?
CSC inhib: 15; Rce1 inhib: inactive; MT1-MMP act inh: -5; PABP FP inh: -13; eIF4H inh: -14; UUG fidelity: -3; MT1-MMP act inh RFP: -5

What do the screens show for `CN(C)C(=O)c1ccc(NC(=O)c2cccc(S(=O)(=O)N3CCCCCC3)c2)cc1`?
MT1-MMP act inh: 2; UUG fidelity: 23; Env fusion inh: 5; MT1-MMP act inh RFP: -6

A portion taken from the entries so far:
Results for Nn1c(Nc2ccccc2)nc2ccccc2c1=O ?
CSC inhib: 15; Rce1 inhib: inactive; MT1-MMP act inh: -5; PABP FP inh: -13; eIF4H inh: -14; UUG fidelity: -3; MT1-MMP act inh RFP: -5

What do the screens show for `CN(C)C(=O)c1ccc(NC(=O)c2cccc(S(=O)(=O)N3CCCCCC3)c2)cc1`?
MT1-MMP act inh: 2; UUG fidelity: 23; Env fusion inh: 5; MT1-MMP act inh RFP: -6

Additional structures.
How did O=[N+]([O-])c1cccc(/C=N\N2CCN(Cc3ccccc3Cl)CC2)c1 do in these assays?
CSC inhib: 3; Rce1 inhib: inactive; MT1-MMP act inh: 4; PABP FP inh: 2; eIF4H inh: -5; UUG fidelity: -4; Env fusion inh: -4; MT1-MMP act inh RFP: 3

What do the screens show for `O=C(COC(=O)CN1C(=O)c2ccccc2C1=O)Nc1ccccc1C(F)(F)F`?
MT1-MMP act inh: 2; UUG fidelity: -5; Env fusion inh: 7; MT1-MMP act inh RFP: 7

Results for Nc1ncnc2c1ncn2[C@@H]1O[C@H](C(=O)Nc2ccc(Oc3ccccc3)nc2)[C@@H](O)[C@H]1O ?
MT1-MMP act inh: 11; UUG fidelity: -7; Env fusion inh: -46; MT1-MMP act inh RFP: -4

What do the screens show for `CN(C)/C=C/C(=O)c1cnc(-c2cccc(Cl)c2)s1`?
CSC inhib: -3; Rce1 inhib: inactive; MT1-MMP act inh: -2; PABP FP inh: 5; eIF4H inh: -8; Env fusion inh: -38; MT1-MMP act inh RFP: -4

What do the screens show for `Nn1c(SCc2cccc(F)c2)nnc1-c1cccnc1`?
CSC inhib: 7; Rce1 inhib: inactive; MT1-MMP act inh: 4; PABP FP inh: -2; eIF4H inh: -4; Env fusion inh: 18; MT1-MMP act inh RFP: -1

Results for Clc1ccc(OCc2nc(-c3ccncc3)no2)c(Br)c1 ?
CSC inhib: 33; Rce1 inhib: inactive; MT1-MMP act inh: -1; PABP FP inh: -15; eIF4H inh: -9; UUG fidelity: -48; Env fusion inh: -261; MT1-MMP act inh RFP: -11

What do the screens show for `CCCC(=O)N1CC(=O)Nc2ccc(F)cc2C1c1ccccc1` (stereo not given)?
CSC inhib: 7; Rce1 inhib: inactive; MT1-MMP act inh: 2; PABP FP inh: 8; eIF4H inh: -7; UUG fidelity: -11; Env fusion inh: 1; MT1-MMP act inh RFP: 4

How did COc1cc2sc3cc(NCC[C@@H]4CCCN4C)ccc3c(=O)c2cc1OC do in these assays?
CSC inhib: 10; MT1-MMP act inh: 21; UUG fidelity: 0; Env fusion inh: -155; MT1-MMP act inh RFP: -2

How did COc1cc(C2NC(=O)CCC2[N+](=O)[O-])c(OC)cc1Br (stereo not given) do in these assays?
CSC inhib: -3; Rce1 inhib: inactive; MT1-MMP act inh: -1; PABP FP inh: 9; eIF4H inh: 0; UUG fidelity: -11; Env fusion inh: 15; MT1-MMP act inh RFP: 3

How did COc1ccnc(Oc2ccccc2)c1C(N)=O do in these assays?
CSC inhib: 3; MT1-MMP act inh: 0; PABP FP inh: -8; eIF4H inh: -5; UUG fidelity: -19; Env fusion inh: inconclusive; MT1-MMP act inh RFP: 2

How did Cc1ccc(C(=O)Nc2ccncc2)cc1S(=O)(=O)N1CCOCC1 do in these assays?
Rce1 inhib: inactive; MT1-MMP act inh: 3; PABP FP inh: 16; eIF4H inh: 7; UUG fidelity: -14; Env fusion inh: -11; MT1-MMP act inh RFP: -1

Results for CN(CCc1ccccn1)C(=O)CC1C(=O)NCCN1Cc1ccccc1C(F)(F)F (stereo not given) ?
CSC inhib: -2; Rce1 inhib: inactive; MT1-MMP act inh: 3; PABP FP inh: 8; eIF4H inh: 4; Env fusion inh: 15; MT1-MMP act inh RFP: 2

How did CC(=O)NC(CC(=O)c1ccc([N+](=O)[O-])cc1)C(Cl)(Cl)Cl (stereo not given) do in these assays?
CSC inhib: 19; Rce1 inhib: inactive; MT1-MMP act inh: 3; PABP FP inh: -10; eIF4H inh: -16; Env fusion inh: 1; MT1-MMP act inh RFP: 4

What do the screens show for `CNc1ccc(NC(C)=O)cc1[N+](=O)[O-]`?
CSC inhib: 1; Rce1 inhib: inactive; MT1-MMP act inh: 9; PABP FP inh: 3; eIF4H inh: 1; MT1-MMP act inh RFP: -1

What do the screens show for `COc1cc(CN2CC(=O)N(c3ccc(C)c(C)c3)C2=S)cc(OC)c1OC`?
CSC inhib: -5; Rce1 inhib: inactive; MT1-MMP act inh: -3; PABP FP inh: 2; eIF4H inh: 1; Env fusion inh: 6; MT1-MMP act inh RFP: -2

What do the screens show for `CCCCCCCCn1cc(C(C)=O)c(=O)[nH]c1=O`?
CSC inhib: -4; Rce1 inhib: inactive; MT1-MMP act inh: 2; PABP FP inh: -4; eIF4H inh: -2; UUG fidelity: -4; Env fusion inh: -27; MT1-MMP act inh RFP: -1

What do the screens show for `C#CCN(C[C@H]1[C@H](OC(=O)NCc2ccc(OC)c(OC)c2)[C@H](OC(=O)NCc2ccc(OC)c(OC)c2)C[C@H]2C(=O)N(c3ccccc3)C(=O)[C@@H]12)S(=O)(=O)c1ccc(C)cc1`?
MT1-MMP act inh: -1; UUG fidelity: -9; Env fusion inh: -21; MT1-MMP act inh RFP: 4
